Source: PubChem
FGF22 binding = shifts melting point of recombinant human FGF22; Q9HCT0; recombinant FGF22 thermal shift, SYPRO orange fluorescence; percent of sucrose octasulfate shift, DMSO zero; 340,000 tested, 1.5% active; calls only at 9.99 µM;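 active = melting point raised past a set limit in the mean and every replicate; inconclusive = no clear call; three in four hits are not shown here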
Target sequence (Q9HCT0 whole entry, looked up): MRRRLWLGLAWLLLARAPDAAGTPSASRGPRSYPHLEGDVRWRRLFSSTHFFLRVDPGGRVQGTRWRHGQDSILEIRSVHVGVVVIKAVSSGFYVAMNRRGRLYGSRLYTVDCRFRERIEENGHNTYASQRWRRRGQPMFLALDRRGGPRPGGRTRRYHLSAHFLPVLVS
Ecoli rRNA inh = selective bacterial rRNA inhibition in E. coli; 350,000 tested, 1.6% active; E. coli WT GFP vs humanized-ribosome RFP mutants, fluorescence, 24 h; hits give low values; DMSO median 0, no signal -100; GFP signal change (wild-type ribosome), % (no concentration beside the values);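 active = significant combined selectivity score with lowered wild-type GFP, culture density cut under 30%, mutant RFP and density less affected; inactive = any of these conditions unmet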; note: one replicate is shown; some compounds called inactive have numbers as strong as hits
ALR inh = blocks human ALR sulfhydryl oxidase activity. P55789. purified ALR, DTT oxidation, H2O2 HRP-luminol luminescence. inhibition, % (test concentration not listed). 290,000 tested, 3.8% active. AID 485317;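 active = mean and each replicate at 75% or more; inconclusive = only one of the two met; inactive = neither met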;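 note: stock transfer was 7.5 nL into about 7.5 µL; 0% = neutral wells and 100% = wells with inactivated enzyme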
B2AR ag = activates human beta-2 adrenergic receptor causing internalization; P07550; Am2.2-beta2AR cells, FAP receptor internalization, flow cytometry; reference of the scale not given here; response, % (no concentration beside the values); 340,000 tested, 0.43% active; AID 504454;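 active = response above a set limit, near 3 SD of response in nonfluorescent compounds, cut at about 42% in these data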;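 note: stock transfer was 100 nL into about 11 µL; a reference agonist was the positive control; negative values mostly stem from fluorescent compounds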
Target sequence (P07550 whole entry, looked up): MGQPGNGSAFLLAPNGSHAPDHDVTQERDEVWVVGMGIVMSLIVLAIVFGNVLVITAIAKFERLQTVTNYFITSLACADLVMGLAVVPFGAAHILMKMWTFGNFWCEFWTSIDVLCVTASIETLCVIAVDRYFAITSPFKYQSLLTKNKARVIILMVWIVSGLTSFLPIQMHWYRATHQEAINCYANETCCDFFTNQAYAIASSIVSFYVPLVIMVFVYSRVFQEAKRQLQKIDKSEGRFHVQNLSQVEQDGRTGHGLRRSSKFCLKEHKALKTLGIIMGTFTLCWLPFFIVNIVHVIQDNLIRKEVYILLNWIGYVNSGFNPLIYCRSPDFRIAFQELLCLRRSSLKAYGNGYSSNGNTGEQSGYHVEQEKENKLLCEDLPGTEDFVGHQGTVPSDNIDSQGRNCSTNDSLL
HNF4A DNA FP = change in binding of human HNF4 alpha to DNA. HNF4a-FITC DNA binding, fluorescence polarization, 1 h. activity change, % at 10 µM. 360,000 tested, 0.3% active. P41235; in the data active = activity change above about 30%, passing the limit was not always enough;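 note: controls were the assay level and a saturating level of protein; the project sought stronger binding though the title names inhibitors; some compounds called inactive have numbers as strong as hits; positive values seem to mean higher polarization but the record does not say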
Target sequence (P41235 whole entry, looked up): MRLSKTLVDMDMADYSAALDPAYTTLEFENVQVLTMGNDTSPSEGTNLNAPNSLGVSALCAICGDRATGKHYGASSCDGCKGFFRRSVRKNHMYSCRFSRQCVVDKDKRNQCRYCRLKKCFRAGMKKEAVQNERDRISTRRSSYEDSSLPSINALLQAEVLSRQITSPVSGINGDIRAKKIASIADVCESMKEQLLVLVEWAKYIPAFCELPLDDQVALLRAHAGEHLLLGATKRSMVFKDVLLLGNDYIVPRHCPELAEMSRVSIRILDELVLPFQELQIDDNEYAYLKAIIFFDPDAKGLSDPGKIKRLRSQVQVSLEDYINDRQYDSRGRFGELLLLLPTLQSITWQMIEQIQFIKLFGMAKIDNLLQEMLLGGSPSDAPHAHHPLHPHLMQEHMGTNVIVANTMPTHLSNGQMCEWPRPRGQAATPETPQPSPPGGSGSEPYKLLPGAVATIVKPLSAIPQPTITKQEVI
E coli growth = blocks Escherichia coli growth | 330,000 tested, 0.21% active | OD600 absorbance (no concentration beside the values) | OD600, 23 h; hits give low values | AID 1053175;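 active = OD600 absorbance below the run mean of sample wells minus 3.6 SD, in any replicate, cut at about 0.56 in these data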;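 note: stock transfer was 300 nL into about 60 µL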
UCH37 inh = blocks the human deubiquitinase UCH37; Q9Y5K5; inhibition, % (test concentration not listed); purified proteasome/UCH37, Ub-AMC cleavage fluorescence; 330,000 tested, 0.33% active;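 active = mean of two replicates above 20%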;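 note: 0% = compound-free wells with enzyme and 100% = wells lacking proteasome; stock transfer was 100 nL into about 20 µL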
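Assay system: Proteasome-bound UCH37. Buffer or medium: pH 7.4 Tris-HCl (50 mM) with ovalbumin, ATP-MgCl2, DTT. Incubation: 30 min preincubation with enzyme, 25 min cleavage at room temperature. Measured by: fluorescence, ex 355 nm, em 460 nm. Read-out basis: percent inhibition. Control set: wells without proteasome as full block, compound-free enzyme plus substrate as uninhibited.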
Ecoli rRNA inh OD600 = also measured in Ecoli rRNA inh; calls as there; OD600 change, %; measured here: OD600 growth;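 optical density of the mix in the first replicate; 0 = DMSO median and -100 = no signal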
Ecoli rRNA inh RFP = further read-out of Ecoli rRNA inh, marked with its call; RFP signal change, %; measured here: RFP humanized mutant strains;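 first replicate; 0 = DMSO median and -100 = no signal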
Starred values were filed as active, the others as inactive; i = inactive; ? = inconclusive; . = no result given; + = active, no number; & = joins results of further samples. An excerpt, so the mix of outcomes need not match the whole.

SMILES	FGF22 binding	Ecoli rRNA inh	Ecoli rRNA inh OD600	Ecoli rRNA inh RFP	ALR inh	B2AR ag	HNF4A DNA FP	E coli growth	UCH37 inh
CCN(CC(=O)NCc1ccc(Cl)cc1)C(=O)COc1cccc(Cl)c1	i	-18.9	-34.5	-1.6	-1.5	-6.2	1.6	0.644	3.2
O=C(CCN1C(=O)S/C(=C\C=C\c2ccccc2)C1=O)Nc1ccc(O)cc1	i	-24.6*	-9.0*	1.4*	10.2	4.9	-3.4	0.729	1.4
CCOC(=O)/C=C1\SCC(=O)N1CC(=O)Nc1ccc2c(c1)CCC2	.	.	.	.	-11.9	12.9	2.6	0.681	-0.2
CON(C)S(=O)(=O)c1cccc(C(=O)Oc2ccc(N(C)S(=O)(=O)c3ccccc3)cc2)c1	i	4.5	6.5	0.9	1.8	5.0	-1.5	0.695	3.8
CSc1ncccc1C(=O)OCC(=O)N(CC(C)C)c1c(N)n(Cc2ccccc2)c(=O)[nH]c1=O	i	22.0	20.8	2.9	1.4	-1.2	3.4	0.667	6.7
COc1cc(NC(=O)c2ccco2)ccc1NC(=O)C(C)C	.	.	.	.	-5.8	-12.3	0.6	0.696	0.5
CC(C)Oc1ccc(C(=O)Nc2ccc([N+](=O)[O-])cc2)cc1	i	3.8	2.0	-2.2	.	-1.6	-1.1	0.682	0.7
CCN(C(=O)c1cn(C)c(=O)c2cc(OC)c(OC)cc12)c1ccccc1C	.	.	.	.	-14.7	-5.2	-0.8	0.72	3.1
COc1ccc(NC(=O)CCNC(=O)Cn2cnc3sc4c(c3c2=O)CCCC4)cc1OC	i	.	.	.	-11.8	-8.7	3.5	0.712	0.4
Cc1ccc(NC(=O)c2sc3ncn(CC(=O)N4CCN(c5ccccn5)CC4)c(=O)c3c2C)cc1F	+	2.1	2.0	0.6	-1.1	0.0	6.0	0.705	-5.1
CCNC(=S)NC1CC2CCCC(C1)N2CCc1ccccc1 (stereo not drawn)	i	13.8	12.6	0.9	-22.1	2.8	2.8	0.66	0.3
Cn1c(N)c(C(=O)Nc2ccc(-c3ccccc3)cc2)sc1=S	i	-7.4	-7.6	-1.5	?	-5.5	4.7	0.656	1.9
CCN(CCCNC(=O)CCc1nc(-c2ccc(OC)cc2)no1)c1cccc(C)c1	.	.	.	.	86.7*	-1.4	-4.1	0.681	3.6
O=C(NCCN1CCOCC1)c1cc(-c2ccccc2)nc2ccccc12	i	-2.5	-1.1	3.7	.	.	2.5	.	.
CCCN1CCN(C(=S)Nc2ccc(S(N)(=O)=O)cc2)CC1	i	10.8	13.7	3.2	1.9	-1.8	-3.3	0.646	4.0
COC(=O)c1cc(COC(=O)c2nc3nccc(C)n3n2)oc1C	i	5.1	10.1	3.4	-5.8	1.5	-4.7	0.704	4.3
COc1cc(OC)cc(C(=O)NC(=S)NNC(=O)c2cnccn2)c1	i	-6.2	-11.6	1.4	16.5	4.2	-2.2	.	.
Cc1sc2ncnc(SCC(=O)NC3CC3)c2c1C	.	2.0	2.2	3.5	-0.1	5.5	-2.2	0.685	3.0
CSc1cccc(CN2CCCC(CNC(=O)c3ccco3)C2)c1 (stereo not drawn)	i	10.5	9.1	3.1	1.2	-3.5	3.5	0.694	5.3
CCn1c(C)c(C)c2cc(C(=O)N3CCCC3)ccc21	i	3.3	-2.2	16.6	36.2	2.0	11.6	.	.
Nc1ccc(-c2c3ccccc3nc3ccccc23)cc1	i	3.5	-4.0	-0.8	-0.9	8.6	3.2	0.693	1.7
COC(=O)C[C@H](NC(=O)Cn1cc(C)c(=O)[nH]c1=O)C(=O)OC	i	6.2	15.9	-3.4	.	-3.0	-2.1	.	.
Cc1ccc(S(=O)(=O)N2CCCOC2CNC(=O)C(=O)NC2CCCC2)cc1 (stereo not drawn)	i	2.3	6.3	3.1	-0.5	-0.5	3.7	0.69	0.8
O=C1NCC(O)=C1C=Nc1ccccc1O	i	-1.1	-0.9	-3.5	25.3	10.0	-0.2	.	.
O=C(NCCCn1ccnc1)c1nc(Cn2cc(Br)cn2)no1	i	12.5	17.9	0.2	-13.8	5.6	0.1	0.66	2.6
Cc1ccc(N2CC(C(=O)OCc3nc(N)nc(Nc4ccccc4C)n3)CC2=O)cc1 (stereo not drawn)	i	-3.0	-9.2	4.4	-3.4	-6.6	4.1	0.679	2.8
CCOC(=O)CSc1nc2sc3c(c2c(=O)n1-c1ccc(OCC)cc1)CCN(C)C3	i	-2.2	-0.3	2.2	93.6*	-14.8	11.6	0.643	-4.6
CCOc1ccc(N2CC(C(=O)Nc3ccccn3)CC2=O)cc1 (stereo not drawn)	i	8.9	-5.0	-7.5	-12.3	2.8	2.2	0.667	2.2
NC(=O)c1cc(S(=O)(=O)NCc2cccc(Br)c2)cs1	i	12.3	0.1	1.0	-4.6	-6.2	4.0	0.712	1.7
COc1cc(/C(C)=N/N2CCN(Cc3ccc(C)cc3)CC2)ccc1O	i	3.5	6.6	-1.7	89.2*	-2.8	-0.5	.	.
COc1ccccc1N1C(=O)C2C(C(=O)c3ccccc3)=NN(c3ccc(C)cc3)C2C1=O (stereo not drawn)	i	29.3	14.8	1.5	-0.3	3.9	-23.0	0.631	-13.4
c1ccc2c(c1)[nH]c1ccccc12	i	.	.	.	-7.0	-2.2	-7.7	0.698	-0.7
Cc1c(NC(=O)C(C)OC(=O)C(NC(=O)c2ccco2)C(C)C)c(=O)n(-c2ccccc2)n1C (stereo not drawn)	.	.	.	.	.	-11.7	3.5	0.711	4.6
CCCOC(=O)C1NC(=O)N2C(C(=O)OCCC)C(C)(C)S[C@H]12 (stereo partly drawn)	i	3.4	-2.9	-2.5	2.8	7.4	4.7	.	2.4
COc1ccc(NC(=O)NCCc2cccc(Cl)c2)cc1OC	i	3.4	6.0	2.5	-7.3	0.9	2.9	0.714	-0.5
CCNC(=S)NNC(=O)c1cccc(Br)c1	.	.	.	.	33.4	-4.5	1.4	0.688	2.1
CC(=O)c1cccc(NC(=O)C(C)OC(=O)CCn2c(C)csc2=O)c1 (stereo not drawn)	i	2.4	-4.8	-1.3	.	15.3	10.9	0.649	-1.5
CC(C)CNc1nc(Oc2ccc(=O)[nH]n2)nc(N2CCOCC2)n1	i	5.3	-3.7	-2.6	27.9	6.8	3.3	0.665	1.7
CCc1sc(C(=O)NC)cc1Br	.	.	.	.	-4.1	-1.8	2.4	0.634	0.1
CCc1ccccc1NC(=O)CN(C)C(=O)CSc1nnc(Nc2ccc(C)cc2)s1	i	0.7	11.4	-3.0	0.9	-4.5	2.1	0.658	0.0
Cc1nn(CCOc2ccccc2)c(=O)n1-c1ccccc1F	.	6.4	3.4	-4.2	-22.4	9.5	0.0	0.718	5.1
O=C(CCCn1c(=O)oc2ccccc21)NC1CCCCCC1	.	.	.	.	-14.7	.	.	0.663	3.5
CC(OC(=O)c1cccs1)C(=O)NCc1cccs1 (stereo not drawn)	.	.	.	.	-11.7	0.3	2.0	0.682	2.1
Cc1ccc(C)c(S(=O)(=O)N2CCN(C(=O)Cc3ccccc3)CC2)c1	i	-4.3	-7.2	0.6	-2.9	3.3	-0.8	0.647	4.7
C=CCNC(=O)CSc1cc([N+](=O)[O-])cc(S(=O)(=O)Cc2ccccc2)c1	i	8.8	3.4	-0.9	-14.9	-3.2	3.1	0.731	2.5
COc1ccc(C(=O)NC2=NCCS2)cc1	i	5.5	20.1	0.4	.	-5.8	1.1	0.624	0.0
CCN1CCCC1CNCC(O)COc1ccc(C(C)(C)C)cc1C (stereo not drawn)	i	1.5	-15.2	5.0	1.5	16.4	0.6	0.696	3.6
NS(=O)(=O)c1cccc(NC(=O)CSc2nnc(C3CC3)n2Cc2ccccc2)c1	i	-8.8	-8.5	-2.1	21.4	-1.0	-0.3	0.66	1.5
COc1cccc(Nc2nc(C(N)COCc3ccccc3)cs2)n1 (stereo not drawn)	i	-58.9	-79.9	-17.9	.	.	-0.1	.	.
Cc1nnc(N2C(=O)C(=O)/C(=C(/O)c3ccc4c(c3)OCCO4)C2c2ccc([N+](=O)[O-])cc2)s1 (stereo not drawn)	i	1.8	13.5	-3.0	15.5	9.1	7.5	.	.
O=C(CSCc1ccccc1Cl)Nc1ccc2c(c1)OCCO2	.	.	.	.	70.3	-3.1	-4.1	0.659	1.4
O=C(NCCC(=O)N1CCOCCOCCOCCOCC1)OCc1ccccc1	i	5.8	5.6	0.8	-2.5	-1.5	4.9	0.641	0.8
CCOc1cc2[nH]c(=S)n(CCC(=O)NCc3ccc(OC)cc3)c(=O)c2cc1OCC	.	.	.	.	-0.2	2.6	2.1	.	.
COc1ccc(C(=O)NC(=S)Nc2cccc(Cl)c2N2CCOCC2)cc1[N+](=O)[O-]	.	.	.	.	4.6	-9.6	-0.5	0.738	4.9
CC(C)c1ccc(/C=C2\C(=O)N(CCN3CCOCC3)C(=S)N2C)cc1	i	-41.5	-55.3	-13.2	4.0	1.3	0.0	0.682	1.3
CCSc1nc(-c2cccnc2)ccc1C#N	i	-20.6	-27.0	-8.6	-2.9	-0.8	1.7	0.672	-50.9
Cc1c(S(=O)(=O)NCCc2ccccc2)c(=O)n(C)c(=O)n1C	i	11.7	5.0	-5.7	1.7	2.7	0.2	0.641	0.4
NC(Cc1ccc(Cl)cc1)c1csc(Nc2ccc(C(F)(F)F)cn2)n1 (stereo not drawn)	i	-55.4	-80.1	-19.2	.	.	-0.2	.	.
COCCCn1c(SCC(=O)Nc2ccc(C(C)=O)cc2)nc2ccccc2c1=O	.	.	.	.	3.9	-6.3	0.1	0.668	3.4
COc1ccc(C(=O)CCC(=O)NCc2cc(OC)cc(OC)c2)cc1	i	1.0	-4.2	1.4	-2.2	-3.0	-1.6	0.683	4.7
Next compounds:
SMILES	FGF22 binding	Ecoli rRNA inh	Ecoli rRNA inh OD600	Ecoli rRNA inh RFP	ALR inh	B2AR ag	HNF4A DNA FP	E coli growth	UCH37 inh
CCOC(=O)c1sc2nc(C)nc(SC(C)C(=O)NC3CC3)c2c1C (stereo not drawn)	i	-2.2	7.9	-4.3	3.4	6.0	-3.7	0.644	2.3
CCOC(=O)N1CC=C2C(C#N)=C(N)C(C#N)(C#N)[C@H](c3ccccc3OCC)[C@H]2C1	.	.	.	.	8.5	13.0	0.6	0.757	-16.3
C=CCOCC(O)Cn1c(N2CCCC2)nc2c1c(=O)n(C)c(=O)n2C (stereo not drawn)	i	17.5	8.0	0.6	4.6	-2.2	-1.1	0.681	4.7
O=C(CCN1C(=O)/C(=C/c2ccccc2)SC1=S)N[C@@H](CO)Cc1ccccc1	i	3.2	9.8	0.2	0.7	-21.8	0.0	0.686	8.5
COCCCn1c(=O)c2sccc2n2c(CCCC(=O)NCc3ccc(OC)cc3)nnc12	i	-5.6	8.3	-1.8	-5.5	-1.8	-0.8	0.668	4.2
COc1ccc(C2=CCC3CCCCN3C2)cc1OC (stereo not drawn)	i	8.5	6.2	0.1	1.3	4.9	0.9	0.681	4.0
Cc1noc(C)c1NC(=O)N(C)C[C@H]1Oc2ccc(NS(=O)(=O)c3ccc(F)cc3)cc2C(=O)N([C@H](C)CO)C[C@@H]1C	i	17.6&2.8	7.3&7.5	-5.6&-3.2	-0.5	-3.5	6.5	0.77	-4.2
O=C(Nc1cccc2ccccc12)c1ccco1	i	1.2	9.6	-0.1	.	.	3.1	.	.
